Screening data (PubChem)
A488 fluor – compound autofluorescence in A488 spectral region. compound autofluorescence, A488 spectral region, dye equivalency; hits give high values. max dye equivalency, M. hit rate 0.1% among 59,000. AID 591; active = above 10 nM dye equivalent; inconclusive = 1 to 10 nM; inactive = 1 nM or less; about half of its hits are not listed in these tables;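 also: highest value over a series up to 38 µM; compound alone in buffer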
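Compound autofluorescence was read in 100 mM Tris pH 8.0 after 15 min at room temperature, ex 480 nm/em 540 nm. Intensities were converted to A488 dye-equivalent concentration using an on-plate six-point A488 standard curve.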
TSHR agonist – activates the human thyroid stimulating hormone receptor; HEK293-CNG-TSHR cells (CNG channel as cAMP sensor), membrane potential dye, cAMP; Potency, µM (series often up to 57.1 µM), for the others: at the top dose activation, most hits filed as activators; AID 926; hit rate 0.48% among 73,000; P16473; active = well fitted activation curve of enough size with the parental cells flat; inconclusive = any curve in the parental cells; inactive = parental cells flat and receptor cells flat or falling; also: potency is read from the fitted curve at half-maximal effect; % of control where 0% means no effect; weak receptor curves with flat parental cells got no call and are not listed
Target sequence (P16473 whole entry, looked up): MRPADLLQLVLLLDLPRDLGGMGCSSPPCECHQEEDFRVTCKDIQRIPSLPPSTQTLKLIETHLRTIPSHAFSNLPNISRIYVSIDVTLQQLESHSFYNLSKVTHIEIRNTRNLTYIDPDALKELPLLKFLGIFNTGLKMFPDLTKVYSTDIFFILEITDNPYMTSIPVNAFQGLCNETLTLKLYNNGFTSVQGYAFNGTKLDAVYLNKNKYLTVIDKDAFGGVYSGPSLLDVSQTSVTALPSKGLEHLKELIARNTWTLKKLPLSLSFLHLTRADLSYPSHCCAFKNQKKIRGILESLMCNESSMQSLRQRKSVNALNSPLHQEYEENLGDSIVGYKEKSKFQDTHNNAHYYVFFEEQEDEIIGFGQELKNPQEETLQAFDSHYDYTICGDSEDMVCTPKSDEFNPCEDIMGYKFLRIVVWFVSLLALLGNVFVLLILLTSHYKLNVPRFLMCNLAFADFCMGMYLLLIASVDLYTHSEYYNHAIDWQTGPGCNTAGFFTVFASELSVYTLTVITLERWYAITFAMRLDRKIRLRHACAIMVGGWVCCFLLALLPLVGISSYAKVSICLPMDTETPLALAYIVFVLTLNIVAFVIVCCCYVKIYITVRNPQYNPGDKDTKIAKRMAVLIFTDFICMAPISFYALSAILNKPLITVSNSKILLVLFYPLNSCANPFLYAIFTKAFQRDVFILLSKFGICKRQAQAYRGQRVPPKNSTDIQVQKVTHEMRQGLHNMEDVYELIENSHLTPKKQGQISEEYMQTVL
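HEK 293 cells stably expressing TSHR and a cAMP-gated CNG channel; parental CNG-only cells as counterscreen. Cells preloaded 60 min with membrane potential dye plus 100 uM RO 20-1724, then compound 30 min; fluorescence read at 590 nm.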
AID923 – qHTS Assay for Allosteric/Competitive Inhibitors of Caspase-1: Spectroscopic Profiling in AFC Spectral Region; compound fluorescence, AFC spectral region (405/520 nm); almost no hit is shown here; Potency, µM (doses to about 57.5 µM), inactives show at the top dose fluorescence increase, most hits filed as activators; hit rate 1.1% among 75,000; AID 923, 2007; active = well fitted activation curve with a large enough effect; inconclusive = small, poorly fitted or top-dose-only effect;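 also: potency is read from the fitted curve at half-maximal effect; 0% is about no effect; scaled to a free AFC standard on each plate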
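Titrations up to 57 uM read every 20 sec for 3 min (405/520 nm) with 50 nM caspase 1 and 5 uM Ac-WEHD-AFC, pH 7.5 HEPES buffer. Fluorescence-vs-time intercept gave baseline, scaled against on-plate AFC standard.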
A647 autofl – compound autofluorescence in A647 spectral region; Compound fluorescence, A647 channel (570/671 nm), Tris buffer; max dye-equivalent concentration, M; 59,000 tested, under 10 active; active means above 1 µM dye equivalent; inconclusive means 0.1 to 1 µM; inactive means 0.1 µM or less;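 also: values scaled relative to a standard on each plate; highest value over a series up to 38 µM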
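Compounds pinned into 100 mM Tris pH 8.0, 15 min at room temperature, then read with 570 nm excitation/671 nm emission filters. Fluorescence normalized to an on-plate six-point Alexa 647 standard curve, giving dye-equivalent concentration per compound concentration.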
Resorufin fluor – compounds fluorescent in resorufin spectral region. Compound fluorescence, resorufin region 547/598 nm, buffer; hits give high values. max dye-equivalent concentration, M. hit rate 0.04% among 59,000. AID 588; active = above 10 nM dye equivalent; inconclusive = 1 to 10 nM; inactive = 1 nM or less; a few of its hits are not listed in these tables; also: highest value over a series up to 38 µM
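Compounds in 100 mM Tris buffer, pH 8.0, incubated 15 min at room temperature, then read with 547 nm excitation and 598 nm emission filters. Fluorescence was converted to dye-equivalent concentration using an on-plate six-point resorufin standard curve.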
An asterisk follows results filed as active; i = inactive; ? = inconclusive; / = no result given; & = joins results of further samples; [ ] = remark or other dose.

molecule | A488 fluor | TSHR agonist | AID923 | A647 autofl | Resorufin fluor
COC(=O)c1ccccc1N1C(=O)[C@@H]2C(c3ccc(Br)cc3)=NO[C@@H]2C1=O | i | / | / | 3.7e-08 | i
CCn1nc(NC(=O)c2ccncc2)c2cc3ccccc3nc21 | i | -14% | 7.6% | 2e-08 | i
CO[C@@]12C[C@@H](COC(=O)c3cncc(Br)c3)CN(C)[C@H]1Cc1cn(C)c3cccc2c13 | i | 12% | 3.1% | 1e-09&2.8e-08 | i
O=C(NCC1CCCO1)C1CCN(c2ccc(S(=O)(=O)N3CCCC3)cc2)CC1 (stereo not drawn) | i | 12% | -1.6% | 7.6e-09 | i
CCC(=O)[C@@H](c1ccccc1)c1ccccn1 | i | 1%[11.4 µM] | 1.2%[11.5 µM] | 3.8e-09 | i
C[C@@](N)(Cc1c[nH]c2ccccc12)C(=O)O | i | -1%[11.4 µM] | 2.1%[11.5 µM] | 3.4e-08 | i
COc1ccc2c(c1)c(CC(=O)OCC(=O)O)c(C)n2C(=O)c1ccc(Cl)cc1 | i | -11%[25.6 µM] | -2.1% | 4.6e-08&1.8e-08 | i
Cc1cccc(N(CC(N)=O)C2SC(=O)N(c3ccccc3)C2=O)c1 (stereo not drawn) | i | -1% | 0.3% | 4.8e-08 | i
CCCCN(CC)CCNC(=O)C1c2cc(OC)c(OC)cc2C(=O)N2CCc3ccccc3C12 (stereo not drawn) | i | 3% | -1.4% | 1.2e-08 | i
COCCCN(C(=O)c1cccnc1SC)c1c(N)n(Cc2ccccc2)c(=O)[nH]c1=O | i | 6% | -0.3% | 3e-08 | i
Oc1ccccc1Nc1ncnc2c1oc1ccccc12 | i | 7% | -0.6% | 1.4e-08 | i
NCCCc1ccc2oc3ccccc3c2c1 | i | 5%[11.4 µM] | -0.4%[11.5 µM] | 4e-08 | i
CN/C(=C\[N+](=O)[O-])NCCSCc1csc(CN(C)C)n1 | i | -1%[25.6 µM] | 2.4%[25.7 µM] | 1e-09 | i
Cc1nc2ccccc2n1S(=O)(=O)c1ccc(S(=O)(=O)N2CCCCCC2)cc1 | i | -1% | 0.0% | 5.7e-09 | i
CCc1ccc2nc3c(c(C(=O)O)c2c1)CCC3 | i | ? | 0.6% | 1e-09 | i
CCOC(=O)N1CCN(C(=O)Nc2ccc3nc(C)c(C)nc3c2)CC1 | / | -6% | 14% | / | /
COC(=O)c1ccc(CSc2ncnc3c2sc2nc(N4CCOCC4)c4c(c23)CCCC4)o1 | i | / | / | 1e-09 | i
COc1ccc(C(=O)CSc2cc(C)nc3nc(C)nn23)cc1OC | i | -10% | -1.6% | 1.3e-08 | i
NC(=O)c1ccsc1NC(=O)COC(=O)Cc1ccsc1 | i | 5% | 1.6% | 1e-09 | i
c1ccc(Nc2ccccc2Nc2ccccn2)nc1 | i | 3% | 1.2% | 3.7e-08 | i
O=C(O)CCCSc1ccccc1 | i | 0%[11.4 µM] | 0.8%[11.5 µM] | 1e-08 | i
NC(=O)NCCS[C@H]1CCCC[C@@H]1O | i | ? | 4.0%[11.5 µM] | 3.7e-08 | i
Cc1ccc(NC(=O)CSCC(=O)Nc2ncc3c(n2)CC(c2ccco2)CC3=O)cc1 (stereo not drawn) | i | 4% | -1.7% | 1e-08 | i
CCOC(=O)N1CCN(c2ncnc3c2oc2nc(C(C)C)c4c(c23)CCC4)CC1 | i | / | -2.1% | 4.6e-09 | i
COc1ccc(CNC(=O)NCc2ccc(OC)c(OC)c2)cc1OC | i | 5% | -1.1% | 1e-09 | i

Complete entries, looked up by structure. Order of screens: A488 fluor, TSHR agonist, AID923, A647 autofl, Resorufin fluor
Results for CCOC(=O)N1CCN(C(=O)Nc2ccc3nc(C)c(C)nc3c2)CC1 → /, -6%, 14%, /, /
Results for Oc1ccccc1Nc1ncnc2c1oc1ccccc12 → i, 7%, -0.6%, 1.4e-08, i
Results for CO[C@@]12C[C@@H](COC(=O)c3cncc(Br)c3)CN(C)[C@H]1Cc1cn(C)c3cccc2c13 → i, 12%, 3.1%, 1e-09&2.8e-08, i
Results for CCC(=O)[C@@H](c1ccccc1)c1ccccn1 → i, 1%[11.4 µM], 1.2%[11.5 µM], 3.8e-09, i

3 of the compounds above, with two lines to a compound.
The line under a structure holds: A488 fluor, TSHR agonist, AID923, A647 autofl, Resorufin fluor
Cc1nc2ccccc2n1S(=O)(=O)c1ccc(S(=O)(=O)N2CCCCCC2)cc1
  i, -1%, 0.0%, 5.7e-09, i
CCc1ccc2nc3c(c(C(=O)O)c2c1)CCC3
  i, ?, 0.6%, 1e-09, i
CCOC(=O)N1CCN(C(=O)Nc2ccc3nc(C)c(C)nc3c2)CC1
  /, -6%, 14%, /, /

The listing continues:
molecule | A488 fluor | TSHR agonist | AID923 | A647 autofl | Resorufin fluor
CC(C)CN(C(=O)COC(=O)c1cc2c(s1)CCC2)C1CCS(=O)(=O)C1 (stereo not drawn) | i | 0% | 5.1% | 3e-08 | i
COC(=O)CN1C(=O)C2(OCCCO2)c2cc(Br)ccc21 | i | 10% | -1.1% | 6.2e-09 | i
CN(c1cccc(NC(=O)COc2ccccc2)c1)S(C)(=O)=O | i | -12% | -0.6% | 3.1e-08 | i
COC(=O)c1cc(NC(=O)CC2NCCNC2=O)cc(C(=O)OC)c1 (stereo not drawn) | i | -29% | -0.5% | 2.2e-08 | i
CCCCC1(C(=O)OCC)CC(CN2CCOCC2)OC1=O (stereo not drawn) | i | / | / | 1.5e-08 | i
COc1ccc(S(=O)(=O)N(C)CC(=O)O)cc1C | / | -5% | 0.2% | / | /
NC(=O)C1CCN(C(c2ccccc2Cl)c2nnnn2CC2CCCO2)CC1 (stereo not drawn) | i | -3%[11.4 µM] | -0.6% | 2.4e-08 | i
COc1ccc(CSc2nc(C)cc(=O)[nH]2)cc1Br | i | ? | 1.2% | 3.7e-08 | i
c1n[nH]c(NC2=NCCC2)n1 | i | 0% | 0.0% | 2.6e-09 | i
COCCn1c(=O)c(C)nc2cnc(OCc3ccccc3)nc21 | i | ? | -2.2% | 2.5e-09 | i
Cc1ccc(N2CCN(CCc3nc4cc(NS(C)(=O)=O)ccc4n3C)CC2)cc1 | i | -3% | -0.8% | 1e-09 | i
Cn1c(=O)c2c(nc(N3CCCCC3)n2CCCNC2=NCCCC2)n(C)c1=O | i | 16% | 0.3% | 1e-09 | i
CCOC(=O)N1CCN(C(=O)CN(c2cccc(C(F)(F)F)c2)S(C)(=O)=O)CC1 | / | 5% | 1.7% | / | /
O=C(NCCCn1ccnc1)Nc1ccc(Cl)cc1 | i | 3% | 0.4% | 2.4e-09 | i
COc1ccc(CCN2C(=O)CC(N3CCOCC3)C2=O)cc1 (stereo not drawn) | i | 0%[11.4 µM] | 0.5% | 3.6e-09 | i
Cc1nn(C)c(C)c1NC(=O)CN1CCC(O)(c2ccc3c(c2)OCO3)CC1 | i | 1% | -1.1% | 1e-09 | i
COc1cccc(C(=O)Nc2ncc3c(n2)CC(c2ccc(OC)cc2OC)CC3=O)c1 (stereo not drawn) | i | ? | 0.7% | 4.9e-09 | i
COCCN1C(=O)C(CC(=O)Nc2ccc(C(C)=O)cc2)SC1=Nc1ccccc1 (stereo not drawn) | i | ? | -4.6% | 3.9e-08 | i
Cc1cc(C)n(-c2nc3c(c(=O)[nH]c(=O)n3C)n2Cc2cccc(Br)c2)n1 | i | ? | 0.8% | 1e-09 | i
CCC(=O)c1cc(-c2nc3ccccc3n2C)n(C)c1 | i | -5% | 0.6% | 4.9e-09 | i
Cc1ccccc1Nc1ncnc2c1cnn2-c1ccccc1 | / | ? | -3.9% | / | /
Cc1cc(OCCCn2ccnc2)cc(C)c1Cl | / | 16%[11.4 µM] | -1.3% | / | /
Cn1ccnc1SCC(=O)Nc1ccc2ccccc2c1 | i | -8% | 0.6% | 2.3e-09 | i
COc1ccccc1N(C(=O)CNS(=O)(=O)c1ccccc1)C(C(=O)NCc1ccco1)C(C)C (stereo not drawn) | i | ? | -0.7% | 1.9e-08 | i
CC1=C(C(N)=O)C(c2cccnc2)n2nc(SCc3ccccc3Cl)nc2N1 (stereo not drawn) | i | 2% | 1.7% | 2.9e-08 | i
CCSC1=C(C#N)C(c2ccccc2C)CC(=O)N1 (stereo not drawn) | i | 14% | -0.8% | 7.3e-09 | i
Cc1cccc(C)c1NC(=O)C(c1cccs1)N(Cc1ccco1)C(=O)Cn1nnc2ccccc21 (stereo not drawn) | i | ? | -1.0% | 5e-09 | i
O=S(=O)(Nc1ccc2nc(-c3ccco3)[nH]c2c1)c1ccccc1 | i | ? | 2.1% | 1.9e-08 | i
Cc1csc(NC(=O)CSc2ncnc3c2cnn3-c2ccccc2Cl)n1 | i | 8% | -0.4% | 1.9e-08 | i
CC(C)C(=O)N(Cc1cc2ccccc2[nH]c1=O)C(C)(C)C | i | / | -0.4% | 1e-09 | i
O=C(O)c1ccc(Cl)c(NC(=O)C2CCCN2S(=O)(=O)c2cccc3nsnc23)c1 (stereo not drawn) | i | -1%[11.4 µM] | -0.2% | 3.4e-08 | i
O=C(Nc1nc(-c2ccccc2)cs1)C1CCCN(S(=O)(=O)c2ccccc2)C1 (stereo not drawn) | i | 2%[11.4 µM] | 0.2% | 4.3e-09 | i
CN1C(=O)C2(C(C#N)=C(N)Oc3c2oc(CO)cc3=O)c2ccccc21 (stereo not drawn) | i | 2% | -1.3% | 1e-09 | i
Cc1cc(Nc2ccccc2)n(C(=O)c2ccc(N)cc2)n1 | i | -21% | 0.1% | 1e-09 | i
C/C(O)=C(/C#N)c1nc2ccccc2[nH]1 | i | 9% | 2.8% | 2.7e-08 | i
CC(OC(=O)CCCN1C(=O)c2ccccc2C1=O)C(=O)Nc1ncc(Cl)cc1Cl (stereo not drawn) | i | / | 1.6% | 1e-09 | i
Cc1ccc(NC(=O)NC(=O)CN2C(=O)NC3(CCc4ccccc43)C2=O)c(C)c1 (stereo not drawn) | i | 4% | -2.8% | 4.4e-09 | i
Cn1c(C2=C(O)CN(c3ccc4c(c3)OCCO4)C2=N)nc2ccccc21 | i | -14% | 5.1% | 1e-09 | i
CCOC(=O)c1sc(NC(=O)CSc2nnnn2-c2ccc(C)cc2C)nc1C | i | ? | 0.9% | 2e-09 | i
CC1(NC(=O)C23CC4CC(CC(C4)C2)C3)CCS(=O)(=O)C1 (stereo not drawn) | i | 0% | 1.2% | 4.3e-08 | i
CCCn1c(C)nc2c(NCCCN(CC)CC)nc(C)nc21 | / | 6% | -0.7% | / | /
O=c1nc2n(c3c1oc1ccccc13)Cc1ccccc1-2 | i | 3% | 0.8% | 3.4e-09 | i
O=C(Cc1ccc(-n2cccc2)cc1)NC1CCCCC1 | i | -8% | 1.2% | 2.2e-08 | i
COc1ccc(Cn2nnnc2C(c2ccccc2OC)N2CCC(C(N)=O)CC2)cc1 (stereo not drawn) | i | 26% | 0.1% | 4e-08 | i
COC(=O)C(CC(=O)Nc1cc(C)ccc1C)Nc1ccccc1OC (stereo not drawn) | i | 9% | -0.4% | 2.3e-09 | i
CCC(c1nnnn1Cc1ccco1)N1CCC(C(N)=O)CC1 (stereo not drawn) | i | -5% | 0.2% | 1.8e-08 | i
CC(C)CN1CCCC2(CCN(C(=O)c3cnccn3)CC2)C1 | i | 1% | 2.3% | 1e-09 | i
Cc1nc(N2CCOCC2)c2nc(-c3ccccc3)n(CCN3CCCC3)c2n1 | / | ? | -1.3% | / | /
CC(=O)NCCNc1cc(-c2ccccc2CN(C)C)ncn1 | i | 8% | 1.8% | 1e-09 | i
O=c1/c(=C\c2cccnc2)sc2nc3ccccc3n12 | i | ? | -0.3% | 1e-09 | i
O=C1CCC(C(=O)O)(c2ccccc2)C1 (stereo not drawn) | i | -7% | -1.9% | 4.1e-08 | i
Cc1c(-c2ccccc2)c(P(=O)(N2CCOCC2)N2CCOCC2)c2ccccn12 | i | 21% | 7.6% | 1e-09 | i

Not all compounds are listed (hit frequency here may not be typical).
